Screens (PubChem BioAssay)
CSC inhib: cancer stem cell inhibition; 300,000 compounds, 1.1% hits; inhibition, % at 7.5 µM; cancer stem cell-like cells viability, luminescence;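 active = mean at 75% or more and at least half the replicates too; inconclusive = mean and replicates disagree; tested in HMLE shEcad cells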;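 also: 0% = median of negative and 100% = median of positive control wells; the first replicate is given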
UUG fidelity: yeast start codon fidelity modulation; 350,000 compounds, 0.13% hits; activity score, % at 18.7 µM; S. cerevisiae UUG-firefly luciferase reporter, luminescence/redox ratio; AID 602363;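 active = replicate mean at a twofold rise or more, about +100% in these data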;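 also: firefly luciferase made from a UUG start codon reports start codon fidelity; reporter light over untreated wells divided by growth signal over untreated wells; some hits fall short of that in this replicate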
PABP FP inh: PABP-poly(A) binding inhibition; inhibition, % at 35 µM; PABP-poly(A) RNA binding, fluorescence polarization; AID 2014; P11940; 290,000 compounds, 1% hits;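 active = 50% or more with normal probe brightness, or confirmed in later tests; inconclusive = above 50% with abnormal brightness, or retests that disagree; inactive = below 50% or failed in later tests; about a fifth of its hits are not listed in these tables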;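 also: calls also rest on retests at 20 µM and on dose response follow-up; controls were probe without protein and protein plus probe with vehicle; some compounds called inactive have numbers as strong as hits; many hits fall short of the cut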
Env fusion inh: HIV envelope-mediated fusion inhibition. 360,000 compounds, 1.1% hits. HeLa-JRFL Env/CEM21 cell fusion, luciferase. inhibition, % at 12.3 µM;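 active = mean replicate inhibition score of at least 50 and every replicate individually at or above 50; inconclusive = only one of the two criteria met; inactive = mean below 50 and not all replicates reaching 50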;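 also: 0% = plate neutral controls and 100% = maraviroc near 300 nM; one replicate is shown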
Rce1 inh: blocks yeast Ras-converting enzyme; Q03530; yeast membranes, quenched prenylated peptide cleavage fluorescence; calls only; 290,000 compounds, 0.27% hits;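 active = fall in fluorescence gain of 50% or more versus controls, with final raw signal at or below 3038400; inconclusive = same 50% fall but final raw signal above 3038400; inactive = fall in fluorescence gain under 50%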;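 also: plate controls were neutral control wells for no effect and wells lacking membranes for full effect; tested at 10 µM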
Target sequence (Q03530 whole entry, looked up): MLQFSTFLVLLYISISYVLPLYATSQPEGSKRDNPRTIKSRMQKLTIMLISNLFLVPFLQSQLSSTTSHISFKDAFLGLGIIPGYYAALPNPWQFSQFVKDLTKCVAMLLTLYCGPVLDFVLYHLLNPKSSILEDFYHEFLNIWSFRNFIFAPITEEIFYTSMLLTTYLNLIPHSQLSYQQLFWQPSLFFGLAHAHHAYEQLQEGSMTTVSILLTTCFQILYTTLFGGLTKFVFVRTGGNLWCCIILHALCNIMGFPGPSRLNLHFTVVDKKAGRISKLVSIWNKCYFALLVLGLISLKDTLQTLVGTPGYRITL
MT1-MMP act inh: inhibitors of human MT1-MMP activation; P50281; HT1080 RFP-PRO-GFP cells, GFP/RFP ratio fluorescence, overnight; percent of plate control window, DMSO zero; 360,000 compounds, 0.061% hits; GFP/RFP ratio change, % at 20 µM;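 active = GFP/RFP ratio change of at least 30% with cell ATP level not reduced by more than half and red fluorescence within 50% of control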; also: strong numbers were not always called active
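Assay system: HT1080 RFP-PRO-GFP cells. Benchmarks: DMSO vehicle wells and RFP-L50D-GFP reporter cell wells. Times: overnight cell settling, then overnight compound exposure, 37 °C, 5% CO2. Compound: 20 µM single dose, 1% DMSO. Read-out basis: GFP/RFP fluorescence ratio.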
eIF4H inh: inhibitors of RNA binding by human eIF4H | Q15056 | eIF4H fluorescence polarization binding assay | inhibition, % at 35 µM | 290,000 compounds, 0.94% hits | AID 2012;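 active = 50% or more with normal probe brightness, or confirmed in later tests; inconclusive = above 50% with abnormal brightness, or retests that disagree; inactive = below 50% or failed in later tests; about a fifth of its hits are not listed in these tables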;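 also: calls also rest on retests at 20 µM and on dose response follow-up; 0% = protein and probe with vehicle and 100% = probe without protein; strong numbers were not always called active; many hits fall short of the cut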
eIF4H inh retest: recorded beside eIF4H inh, whose call it bears; inhibition, %; compound at 20 µM; confirmation average;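 mean of two retest wells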
PABP FP inh retest: second read-out of PABP FP inh, no call of its own (marks repeat the call); inhibition, %; compound at 20 µM; confirmation repeats;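 mean of two retest wells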
MT1-MMP act inh RFP: recorded beside MT1-MMP act inh, whose call it bears; RFP signal change, %; measured here: RFP expression control read;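 0 = vehicle wells; hits needed this value within 50% of zero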
Active calls of the source: *; i = inactive; ? = inconclusive; nt = not tested or not shown; & = joins results of further samples.

SMILES	CSC inhib	UUG fidelity	PABP FP inh	Env fusion inh	Rce1 inh	MT1-MMP act inh	MT1-MMP act inh RFP	eIF4H inh	others
Cc1cc(C)c(OCC(=O)N(C)CC(=O)Nc2ccc(N3CCOCC3)cc2)c(C)c1	2.7	9.9	0.4	4.0	i	2.0	4.2	-15.2
COc1ccc(C(=O)C(OC(=O)c2ccccc2Cl)c2ccccc2)cc1 (stereo unspecified)	-9.9	nt	-7.8	-6.8	i	1.4	3.4	-10.0
CCN(CC)C(=O)CSC(Nc1cccc(F)c1)=C(C#N)C#N	52.8	-16.6	49.8	0.4	i	-55.2	38.9	63.0*	eIF4H inh retest=56.7*;PABP FP inh retest=33.0
Cc1cccc(N2CCN(c3ccc4cc(S(=O)(=O)N5CCCCC5)ccc4n3)CC2C)c1 (stereo unspecified)	-13.3	-2.4	-7.0	5.1	i	3.5	-14.2	-0.6
CC1(C)CC(NC(=O)c2ccccc2F)CC(C)(C)N1	2.8	9.0	6.1	-1.6	i	-0.3	-0.8	15.5
O=C(O)C1=C[C@H](c2csc3ccccc23)C[C@H](OCc2ccc(CO)cc2)O1	-6.0	-15.1	-0.2	11.9	i	3.1	2.3	-0.9
O=C1Nc2cc(C(=O)N3CCN(c4ccccc4F)CC3)ccc2NC1CSCc1ccccc1F (stereo unspecified)	-7.8	nt	-5.1	nt	i	nt	nt	42.5
CCOc1ccc(/C=N/OC(C)C(=O)NCc2ccc3c(c2)OCO3)cc1 (stereo unspecified)	-0.5	nt	7.9	19.2	i	-0.4	-2.8	-0.6
CC(C)(C)c1ccc(OCCNCc2ccccc2)cc1	37.5	-9.4	1.2	15.4	i	-1.7	-3.4	-12.4
CC(=O)N(c1nc(/C=C\C(=O)O)cs1)c1ccccc1F	5.9	-12.2	-3.2	24.1	i	-3.9	4.2	-4.3
Cc1ccccc1N(C(=O)CCC(=O)Nc1ccccn1)C(C(=O)NC(C)C)c1ccc(F)cc1 (stereo unspecified)	-15.5	0.2	11.5	32.0	nt	-3.9	0.5	-1.8
CCCCn1c(N)c(N(C)C(=O)c2cn(-c3ccccc3)nc2-c2ccccc2)c(=O)[nH]c1=O	nt	-9.5	nt	-61.0	nt	-1.1	0.6	nt
O=C(Cn1nc(-c2ccco2)ccc1=O)Nc1cc(C(F)(F)F)ccc1Cl	-10.9	5.1	nt	1.5	i	3.3	1.6	nt
CC(C)(O)C(=O)NNC(=S)NCc1ccco1	6.7	nt	23.8	-0.4	i	1.0	3.8	4.3
COc1ccc2c(CN(Cc3ccccc3)Cc3ccccc3)cc(=O)oc2c1	nt	-15.1	nt	13.3	nt	4.1	-3.8	nt
CC(/C=C/c1ccc(Cl)o1)=C\C(=O)O	8.5	nt	31.0	nt	i	0.3	7.5	-2.6
CCOC(=O)NCN1C(=O)C2C3C=CC(C3)C2C1=O (stereo unspecified)	0.0	-7.9	1.8	nt	i	1.7	3.4	-12.0
CCN(CC)c1ccc(C=O)c(OC)c1	-1.5	-23.2	2.3	-11.8	i	0.0	-3.7	2.7
O=C(O)[C@H](Cc1ccccc1)NC(=O)N1CCN(c2cccc(C(F)(F)F)c2)CC1	7.2	-10.6	14.9	-10.5	i	7.0	7.6	4.3
CC1CCCCC12NC(=O)N(CC(=O)c1ccc(Cl)s1)C2=O (stereo unspecified)	-19.4	-9.2	-0.6	-51.7	i	-7.7	-2.9	-1.7
CC(=O)c1c(C)[nH]c(C(=O)CSc2nnc(N)s2)c1C	-0.7	nt	?	9.5	i	-6.2	3.2	3.0
CCc1ccc(CCC(=O)Nc2ccc(C)cc2C)o1	17.4	-3.7	4.5	-81.1	i	-4.7	-0.5	1.1
O=C(CCN=C1NS(=O)(=O)c2ccccc21)OCC(=O)c1ccc(F)cc1	-11.5	-18.7	nt	4.7	i	-3.3	-0.9	nt
CCN1c2ccccc2-c2nc3ccccc3n2C1c1cccnc1 (stereo unspecified)	-13.9	nt	-1.1	nt	?	-3.4	-1.9	-3.7
C[C@@H]1CN([C@@H](C)CO)C(=O)CCCn2cc(nn2)CO[C@H]1CN(C)C(=O)Oc1ccccc1	nt	-26.6&-6.4	nt	2.1	nt	1.7	7.8	nt
CCCCCCCCCS(=O)(=O)N/N=C/c1cccc([N+](=O)[O-])c1	23.5	nt	22.0	-3.3	i	3.2	2.9	0.7
O=C(CN1CCCC1=O)NC1CCCc2c1cnn2-c1cc(F)cc(F)c1 (stereo unspecified)	-5.9	-5.0	-11.0	nt	i	-0.2	-6.9	6.2
Cc1ccc(-c2n[nH]c(=S)n2/N=C/c2sccc2C)cc1	7.4	nt	-0.6	-9.8	nt	-0.2	-3.5	-6.5
Cc1cccc(C(=O)Nc2ccccc2NC(=O)c2cccc(C)c2)c1	-9.9	-3.1	8.1	23.4	i	0.2	-12.8	-10.2
O=C(CSc1nnc(SCc2ccc(Cl)cc2)s1)N/N=C/c1c[nH]c2ccccc12	27.8	nt	-7.0	nt	i	-0.4	-9.7	39.5

Already shown: an excerpt of the list.
SMILES	CSC inhib	UUG fidelity	PABP FP inh	Env fusion inh	Rce1 inh	MT1-MMP act inh	MT1-MMP act inh RFP	eIF4H inh	others
CCc1ccc(CCC(=O)Nc2ccc(C)cc2C)o1	17.4	-3.7	4.5	-81.1	i	-4.7	-0.5	1.1
O=C(CCN=C1NS(=O)(=O)c2ccccc21)OCC(=O)c1ccc(F)cc1	-11.5	-18.7	nt	4.7	i	-3.3	-0.9	nt

(more compounds)
SMILES	CSC inhib	UUG fidelity	PABP FP inh	Env fusion inh	Rce1 inh	MT1-MMP act inh	MT1-MMP act inh RFP	eIF4H inh	others
Cc1c2c(n3c(nc4ccccc43)c1C#N)N(CCN1CCOCC1)CC2	0.0	nt	?	-4.6	i	-10.7	-4.1	?
Cc1nc2c(-c3ccc(Cl)cc3)c(C)[nH]n2c(=O)c1Cc1ccccc1	-8.7	nt	-5.0	57.1*	i	2.5	-17.1	3.3
Cc1cccc(-n2ncc3c(N4CC(C)CC(C)C4)ncnc32)c1 (stereo unspecified)	56.2	-22.7	2.3	-27.3	i	-5.1	-9.0	-5.2
O=S1(=O)CCOC[C@H](c2ccccc2)N1Cc1cccc(F)c1	20.3	17.2	2.8	nt	i	1.0	4.2	2.7
CN1CCC(N(C)S(=O)(=O)c2ccc(NC(=O)c3cccc(C#N)c3)cc2)CC1	-15.2	-26.7	nt	4.6	nt	1.2	5.4	nt
COc1cc(Br)cc2cc(C(=O)OC3CCN(C)CC3)c(=O)oc12	34.1	-7.7	nt	-60.4	i	-4.1	-9.9	nt
CCCOC(=O)CCn1c(=S)oc2ccccc21	-6.7	-16.7	-4.0	15.4	i	-2.0	2.7	-14.8
CN(CCC#N)C(=O)COC(=O)c1ccc(Cl)c(S(=O)(=O)N(C)c2ccccc2)c1	-11.7	nt	-1.1	-7.2	i	-1.1	-2.8	-5.5
C/C(=N\NC(=O)CNC(=O)C1COc2ccccc2O1)c1ccc(Cl)cc1 (stereo unspecified)	0.1	nt	4.3	-1.4	i	2.5	5.1	1.8
COc1ccc(-n2cnnc2SCC(=O)Nc2cccnc2Cl)cc1	nt	nt	14.7	0.5	i	-1.9	0.3	-9.8
CCOC(=O)CNC(=O)c1ccc2c(c1)OCCO2	-7.3	-21.6	-7.8	nt	i	0.5	1.8	-10.2
CC(C)c1ccc(-n2nnnc2SCc2nc(N)nc(N)n2)cc1	nt	-4.6&-27.5	nt	38.9	nt	0.6	-7.6	nt
CS(=O)(=O)N1CCCC(C(=O)Nc2ccc(F)c(F)c2)C1 (stereo unspecified)	nt	-9.8	nt	11.5	nt	-2.8	1.2	nt
CN1CCN(c2nc(-c3ccc(Cl)c(Cl)c3)nc3ccccc23)CC1	27.6	-1.1	-7.3	nt	i	0.5	1.3	-3.3
COc1ccc(OC)c(NC(=O)CSc2nnc(C3CCCCC3)n2N)c1	-10.8	-13.3	nt	-29.9	i	3.9	-2.5	nt
CCOc1cccc2sc(N(CCCN(C)C)C(=O)c3ccc(S(=O)(=O)N(C)c4ccccc4)cc3)nc12	nt	nt	-1.2	-17.8	i	-5.5	-6.1	-12.8
CC(c1ccccc1)n1c(Br)nc2c1c(=O)[nH]c(=O)n2C (stereo unspecified)	-6.7	-5.2	-0.9	-5.9	i	3.6	1.5	21.2
O=C(NCCc1c[nH]c2ccccc12)C1CCN(Cc2ccc(Br)cc2)CC1	8.9	-8.4	-14.0	7.0	i	0.5	-6.9	-0.3
COc1cccc(C(=O)NNC(=O)C2CC(C)=C(C)CC2C(=O)O)c1 (stereo unspecified)	-2.6	-13.1	6.6	nt	i	1.9	3.9	4.4
COC(=O)C1(CCSC)NC(c2ccccc2OC)C2C(=O)N(C)C(=O)C21 (stereo unspecified)	-3.0	nt	-2.4	-13.7	i	1.1	3.5	-10.7
CCCNC(=O)c1ccccc1NC(=O)COc1cccc2c1OC(C)(C)C2	10.8	7.1	nt	-481.1	i	0.0	-0.3	nt
COc1ccc(Cc2[nH]n3c(=O)cc(C)nc3c2-c2ccccc2)cc1	29.0	-2.2	-1.2	4.2	i	-3.1	-6.7	-0.6
CCC(C)(C)n1nnnc1C(c1ccc(OC)c(OC)c1)N1CCN(c2ccc(F)cc2)CC1 (stereo unspecified)	nt	-5.7	26.0	nt	i	1.9	-1.1	-7.7
O=C(NCCc1c[nH]c2ccccc12)C(=O)NCC(c1ccco1)N1CCN(c2ccccc2F)CC1 (stereo unspecified)	nt	10.1	-7.7	nt	i	6.7	0.5	-3.5
Cc1cccc(N2CCN(C(=O)CNC(=O)C3CCCCC3)CC2)c1C	nt	-0.8	nt	55.6*	nt	-2.0	-26.3	nt
Cc1ccc(S(=O)(=O)Nc2cccnc2)cc1C	-10.0	-18.5	-4.9	-106.4	i	-1.2	-4.4	-10.0
O=C(CSc1nc2c(sc3ccccc32)c(=O)n1CCO)NCc1ccco1	-14.6	-5.8	6.9	-100.7	i	-2.0	-2.5	13.9
OC[C@@H]1CN(Cc2ccc3c(c2)OCO3)C[C@H](n2cnc3c(NCc4ccco4)ncnc32)O1	nt	-8.7	nt	-1.6	nt	0.3	2.8	nt
Cc1ccc2ncccc2c1NC(=S)NC(=O)c1ccccc1	-5.5	nt	59.7	1.3	i	2.7	-3.8	2.7	eIF4H inh retest=0.7;PABP FP inh retest=-2.8
COC(=O)CCC(=O)NNC(=O)c1cccc(Br)c1	-4.5	-3.3	11.3	4.2	i	1.7	4.2	2.2
COc1ccc(OC)c(-c2c[n+](=O)c3c(n2[O-])CCCC3)c1	-14.2	nt	4.2	-60.2	i	2.9	10.1	-1.0
Cc1ccc(C)c(/C=N/NC(=S)NC(C)C)c1	nt	nt	1.8	nt	i	2.0	-2.2	3.0
COc1cccc(-n2nnc3c(=O)n(Cc4ccc(F)cc4)cnc32)c1	-4.9	-8.8	-4.5	-4.1	i	9.9	-0.1	1.3
O=C(O)C(c1ccccc1)C1CCCCC1O (stereo unspecified)	nt	-11.8	nt	25.9	nt	10.1	-3.1	nt
CCCn1cnc2cc(NCc3cccc(OC)c3)ccc21	-10.5	-23.0	-5.0	nt	i	3.0	0.1	2.1
O=C(CN(C(=O)c1csnn1)c1ccc(F)c(Cl)c1)NCc1ccc2c(c1)OCO2	-7.7	-11.3	0.1	-4.6	nt	-1.3	-1.3	6.4
CCc1cc2c(SC(C)C(=O)NC3CCCC3)ncnc2s1 (stereo unspecified)	6.5	-32.6	nt	2.9	nt	0.0	-3.4	nt
